Source: PubChem BioAssay (National Center for Advancing Translational Sciences (NCATS))
PINK1 expr mod: PINK1 expression modulation; PINK1 immunofluorescence, high-content cytometry, 24 h; Potency, µM (doses to about 76.6 µM), for inactives: at the top dose activation (PINK1 increase), usual class: activators; 0.2% of 410,000 active; AID 624263; active = well fitted activation curve with a large enough effect; inconclusive = small, poorly fitted or top-dose-only effect; inactive = flat fitted curve, though single readings scatter; cell line not stated here;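 note: potency is the fitted concentration of half-maximal effect; % of control where 0% means no effect; nearly all actives have a fitted effect of over 65% in size; a mitochondrial uncoupler was the plate control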
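PINK1 protein level read as immunofluorescence by microplate cytometer in a fixed, stained stable cell line after 24 h exposure to five compound concentrations, with CCCP as control.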
D2 agonist: activates the human D2 dopamine receptor; P14416; DiscoveRx PathHunter D2 beta-arrestin, luminescence, 90 min; 100% = 57 uM dopamine signal; activation, % (no concentration beside the values); 0.084% of 360,000 active; in the data active = activation above about 40%; inconclusive = about 15% to 40%; inactive = below about 15%; note: compound concentration not given in the record; the text of the record calls up to 30% inactive
Target sequence (P14416 whole entry, looked up): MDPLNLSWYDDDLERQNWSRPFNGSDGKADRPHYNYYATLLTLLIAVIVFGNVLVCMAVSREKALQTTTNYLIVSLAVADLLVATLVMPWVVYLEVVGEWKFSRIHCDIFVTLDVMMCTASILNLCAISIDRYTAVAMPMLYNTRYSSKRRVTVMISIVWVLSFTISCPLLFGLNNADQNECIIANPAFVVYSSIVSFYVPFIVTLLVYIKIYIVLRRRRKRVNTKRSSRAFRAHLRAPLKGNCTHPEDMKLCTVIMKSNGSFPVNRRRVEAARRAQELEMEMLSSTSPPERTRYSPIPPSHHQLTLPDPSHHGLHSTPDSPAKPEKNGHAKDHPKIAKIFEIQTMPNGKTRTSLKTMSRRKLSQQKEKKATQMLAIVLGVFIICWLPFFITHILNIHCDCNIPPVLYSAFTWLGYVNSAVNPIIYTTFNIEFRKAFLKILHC
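Agonist mode: compounds alone added to overnight-plated D2 PathHunter cells for 90 min at 37 C, with 57 uM final dopamine (EC100) defining full response. Beta-arrestin recruitment detected by chemiluminescent reagent, read after 1 h at ambient temperature.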
TRPML1 ag: agonists of human TRPML1 channel. TRPML1-expressing cells, Ca2+ dye fluorescence, FDSS; host cell line not named in the record; reference of the full effect not given here. activation, % (test concentration not listed). 0.12% of 410,000 active. AID 624414; in the data active = activation above about 50%; inconclusive = about 30% to 50%; inactive = below about 30%; note: 0% is about no effect; the text of the record puts the active cut at 80%
Target sequence (Q9GZU1 whole entry, looked up): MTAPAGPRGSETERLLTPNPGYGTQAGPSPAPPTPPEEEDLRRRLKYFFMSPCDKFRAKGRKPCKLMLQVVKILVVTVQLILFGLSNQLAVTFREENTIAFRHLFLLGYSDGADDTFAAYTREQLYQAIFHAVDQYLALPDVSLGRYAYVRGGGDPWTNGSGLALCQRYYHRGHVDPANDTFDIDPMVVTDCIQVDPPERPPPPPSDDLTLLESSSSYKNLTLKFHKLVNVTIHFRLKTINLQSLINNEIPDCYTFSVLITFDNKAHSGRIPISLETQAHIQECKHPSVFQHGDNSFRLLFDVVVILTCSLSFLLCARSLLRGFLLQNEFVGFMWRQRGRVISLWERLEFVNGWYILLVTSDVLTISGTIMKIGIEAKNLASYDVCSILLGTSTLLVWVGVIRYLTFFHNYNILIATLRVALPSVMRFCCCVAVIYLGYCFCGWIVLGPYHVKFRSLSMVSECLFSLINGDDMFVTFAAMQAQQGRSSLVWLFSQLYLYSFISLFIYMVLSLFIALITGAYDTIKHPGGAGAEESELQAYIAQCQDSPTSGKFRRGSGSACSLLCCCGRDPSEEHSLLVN
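Tet-induced TRPML1-DL cells, 1,500 per well, cultured overnight, were loaded with a no-wash Ca2+ dye for 45–90 min. Calcium fluorescence was recorded on the FDSS for 110 s after compound addition, before the EC80 agonist (4 uM 54-4) was added.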
TRPML1 blocker: blocks the human TRPML1 channel. activity change, negative = inhibition, % (test concentration not listed). 0.02% of 390,000 active. TRPML1-inducible cells, Ca2+ dye fluorescence, FDSS; stronger effect = lower value; inhibition of EC80 agonist-evoked calcium signal. AID 624415. Q9GZU1; in the data active means activity change below about -50%; inconclusive means about -30% to -50%; inactive means above about -30%;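 note: stimulus is agonist 54-4 at its EC80 concentration; % is set by controls: 0 for no effect and ±100 for the full control effect; compound concentration not given in the record; the text of the record puts the active cut at -80%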
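Tet-induced TRPML1-DL cells loaded with Ca8 no-wash calcium dye were read kinetically on FDSS. Compound addition was followed by EC80 agonist 54-4 (4 uM final); inhibition was read over 110 s.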
CtBP-E1A blk: blocks the CtBP interaction with E1A; AlphaScreen GST-E1A/His-CtBP binding, 1536-well; stronger effect = lower value; control for the full effect not named in the record; activity change, % (concentration not given with the values); 0.49% of 340,000 active; AID 651724; in the data active means activity change below about -65%; inconclusive means about -30% to -65%; inactive means above about -30%; note: % is set by controls: 0 for no effect and ±100 for the full control effect
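In 5 uL wells, 23 nL compound meets equimolar GST-E1A and His-CtBP (5X stock 125 nM each) for 2 h, 37 °C. Beads (5X, 50 ug/mL) then 1 h, 37 °C, dark.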
Six1-Eya2 inh: Six1/Eya2 interaction inhibition; 0.56% of 360,000 active; activity change, % (no concentration beside the values); AlphaScreen GST-Six1/His-Eya2 binding, biochemical; stronger effect = lower value; control for the full effect not named in the record; in the data active = activity change below about -65%; inconclusive = about -30% to -65%; inactive = above about -30%; note: % is set by controls: 0 for no effect and ±100 for the full control effect; compound concentration not given in the record
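AlphaScreen luminescence read after one hour at 37 °C in darkness. Pin-transferred compounds met GST-Six1 and His-Eya2 protein (5X stock 250 nM/500 nM) plus glutathione donor and Ni-chelate acceptor beads (5X, 50 ug/mL).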
* hit, by the source's call; ? = inconclusive; . = no result given; & = joins results of further samples; [ ] = another dose, or the depositor's remark.

Molecule	PINK1 expr mod	D2 agonist	TRPML1 ag	TRPML1 blocker	CtBP-E1A blk	Six1-Eya2 inh
C=CCOC(=O)C1=C[C@@H](c2ccc(C(F)(F)F)cc2)C[C@@H](OCc2ccc(CO)cc2)O1	3.5%	-0.6	-0.2	20	4	0
CC(C)CC1C(=O)N(Cc2cn(Cc3ccco3)nn2)CCS(=O)(=O)N1Cc1ccc(-c2ccncc2)cc1 (stereo not given)	1.1%	0.6	0.0	-2	-2	-11
COc1ccc(NC(=O)CN2C(=O)COc3ccc(S(=O)(=O)Nc4ccccc4)cc32)cc1OC	0.9%	.	-0.7	12	.	.
CN(CCc1ccccc1)C(=O)c1ccc(NC(=O)Cc2cccc(NC(=O)C3CCN(C(=O)C4CCCC4)CC3)c2)cc1	0.2%	-0.9	1.3	-12	-5	-4
CCn1c(CC(=O)Nc2ccccc2F)nnc1SCC(=O)NC1CCCC1	-1.1%	-4.0	-0.6	1	-1	0
C[C@H](NC(=O)c1nc[nH]c1C(=O)NC(c1ccccc1)c1ccccc1)C(=O)OC(C)(C)C	-1.9%	-0.5	0.9	10	-7	-12
CC(C)C(NC(=O)C1(NC(=O)OCc2ccccc2)CCCC1)C(=O)O (stereo not given)	1.7%	-2.4	0.0	-2	2	-7
CN1CCN(c2ccc(CNS(=O)(=O)Cc3ccc(Cl)cc3)cc2)CC1	12%	-3.1	1.3	18	4	-2
Cc1ccc(S(=O)(=O)N2CCC(N3CCCCCC3)CC2)cc1	-2.4%	-3.1	-0.9	91	-11	-10
O=C(c1ccccc1)n1nc(-c2ccccc2)nc1NCc1ccco1	3.6%	-6.3	-1.1	9	5	6
CCOC(=O)c1c(NC(=O)C(=O)N/N=C/c2ccccc2O)sc2c1CCCCC2	9.8%	-3.6	0.6	3	1	7
COc1ccc(CCNC(=O)CSc2cccc3cccnc23)cc1OC	-0.9%	-1.4	0.8	-7	?	?
Cc1cccc(NC(=O)CCc2nnc3ccc(N4CCC(C)CC4)nn23)n1	-1.0%	0.9	-0.7	-8	1	2
CCOC(=O)c1ccc2c(c1)n(CCO)c(C)[n+]2CC	-0.3%	-3.1	-0.3	-5	-3	1
Cc1cc(-c2ccc(S(=O)(=O)Nc3cccc(C)c3C)s2)on1	8.1%	.	-0.7	-8	.	.
Nc1cc([N+](=O)[O-])ccc1O	-1.6%	-8.2	0.4	-5	-3	0
CC1(C(=O)NS(=O)(=O)C2CC2)CCN(C(=O)c2ccccc2F)C1 (stereo not given)	0.6%	-2.6	-0.2	.	4	8
COC(=O)c1nn(-c2ccccc2)ccc1=O	-2.2%	-0.5	0.9	28	4	4
Cn1c(=O)c(-c2cc(=O)[nH][nH]2)c(O)c2ccccc21	-1.3%	0.0	-0.6	-5	-9	-18
Cc1ccc2c(c1)/C(=C/c1ccccc1C)C(=O)N2	2.1%	-5.9	0.0	-11	-2	-9
CC1=CC2=C(C=O)C(=O)C(C)(O)C(O)C2=CO1 (stereo not given)	2.0%	-0.8	0.8	10	3	-1
CCc1nc2ccc(C(=O)N(CC)CCN(C)C)cn2c1N(C)C(=O)c1cccc(OC)c1	1.0%	-6.4	-0.6	.	-3	-5
Cc1cccn2cc(CCNC(=O)c3ccco3)nc12	0.1%	-4.2	0.0	-8	0	-2
N#C/C(=C\c1ccc2c(c1)OCO2)C(N)=S	2.3%	-12	0.1	4	.	0
CC(C)(C)OC(=O)C(C1NC(C(=O)O)C(C)(C)S1)N1C(=O)c2ccccc2C1=O (stereo not given)	2.0%	-2.4	-0.3	-4	-4	1
O=c1[nH]cnc2c1ncn2-c1ccc(Cl)cc1	-2.6%	1.7	-0.3	-11	-4	-9
Cc1ccc(NC(=O)CCNS(=O)(=O)c2ccc3[nH]c(=O)oc3c2)cc1F	-0.7%	-2.3	-0.6	-14	0	0
Cc1ccc(NC(=O)COc2ccc(-c3nnco3)cc2)cc1S(=O)(=O)N1CCOCC1	1.1%	3.9	-0.5	-16	-17	-16
CCc1c(C(=O)NNC(=S)NC2CCCCC2)csc1C	-2.1%	-5.6	3.6	2	-10	-7
Cc1ccc(Cl)cc1N(C)C(=O)c1noc2c1CCCCC2	27%	.	0.4	-8	.	.
Fc1cccc(CSc2ccc(-c3cccs3)nn2)c1	-0.2%	.	2.4	-1	.	.
O=C(N/N=C/c1cccc(O)c1)c1csc2ccccc12	2.3%	-0.2	2.2	49	-13	-1
O=C(NNc1nc2c(F)cc(F)cc2s1)C1COc2ccccc2O1 (stereo not given)	3.3%	-6.9	0.4	-3	7	-6
COc1ccc(NC(=O)C/C(C)=N/NC(=O)C(=O)NC2CCCCC2)c(OC)c1	7.1%	-2.9	-0.4	-9	-4	-4
CCOc1ccc(-n2c(=O)c3sccc3n(CC(=O)NCc3ccco3)c2=O)cc1	2.6%[38.3 µM]	-5.4	-0.5	0	-3	-2
O=C(O)CC(CCc1ccccc1)OC1OC(CO)C(O)C(O)C1O (stereo not given)	0.5%	-5.8	.	.	-1	-21
Cn1nnnc1SCC(=O)Nc1ccccc1[N+](=O)[O-]	-1.6%	-0.5	0.7	18	0	11
Cc1cc2c(c(=O)n1CCc1ccccc1)C(c1ccco1)C(C#N)=C(N)O2 (stereo not given)	5.6%[38.3 µM]	-0.3	1.2	-5	-2	0
COc1cc(N)c(C(O)c2nccc3cc(OC)c(OC)cc23)cc1OC (stereo not given)	-0.8%	2.6	1.3	-2	17	0
COc1ccc(/C=N/Nc2ncnc(Cl)c2N)cc1OC	5.3%	-4.0	0.3	-6	-23	-29
N#Cc1ccc(-c2ccc(F)cc2)nc1SCC(=O)Nc1sc2c(c1C#N)CCC2	?	-3.5	9.1	-3	7	0
CNC(=S)NN(c1ccccc1)c1ccccc1	-3.7%[38.3 µM]	-0.9	-0.1	4	-6	-3
O=C(CSc1nccn1Cc1ccc(F)cc1)Nc1nc2ccccc2s1	12%	.	1.4	-2	.	.
Cc1[nH]c(=O)c(C#N)c(C)c1CSc1ncccn1	-1.4%	-0.9	-0.4	6	-14	-19
O=C(Nc1cccc(F)c1)c1c(F)c(F)c(F)c(F)c1F	4.3%	0.6	-0.6	12	4	13

Taken from above:
For TRPML1 blocker, CNC(=S)NN(c1ccccc1)c1ccccc1 is listed with 4
For Six1-Eya2 inh, N#Cc1ccc(-c2ccc(F)cc2)nc1SCC(=O)Nc1sc2c(c1C#N)CCC2 is listed with 0
For CtBP-E1A blk, O=C(Nc1cccc(F)c1)c1c(F)c(F)c(F)c(F)c1F is listed with 4

The listing continues:
Molecule	PINK1 expr mod	D2 agonist	TRPML1 ag	TRPML1 blocker	CtBP-E1A blk	Six1-Eya2 inh
CC(=O)Nc1ccc(S(=O)(=O)NNC(=O)CCC(=O)NCc2ccccc2)cc1	0.0%	-4.9	-0.4	12	2	-1
COCCCn1c(C)nnc1SCc1ccc(C(C)(C)C)cc1	0.2%	-1.8	1.2	-17	8	20
COC(=O)c1[nH]c2ccc(C)cc2c1NC(=O)CN1CCCc2ccccc21	?	-1.6	5.0	7	-12	-19
CCCCN(C)c1c(C)nc2ccc(C(=O)NCCc3c[nH]c4ccccc34)cn12	-0.3%	13	-0.7	.	-19	-10
Nc1ccccc1C(=O)N1CCCC1	-1.3%	-2.2	-0.8	11	5	2
Cc1ccc(C(=O)NCC(c2ccco2)N2CCCCC2)s1 (stereo not given)	0.4%	-0.8	-0.8	8	.	-5
COc1ccc(N(C(=O)c2ccccc2C)S(=O)(=O)c2ccc3c(c2)n(C)c(=O)n3C)cc1	-1.7%	.	-0.2	23	.	.
CC1CCCN(C(=O)NC2CC(=O)N(c3ccc4c(c3)OCCO4)C2)C1 (stereo not given)	-3.0%	2.3	0.0	24	2	5
CC1CCCC(C)N1CCCNC(=O)c1csc2c1CCCCC2 (stereo not given)	-1.0%	1.1	0.0	-22	-18	1
Cc1cc(C)cc(NC(=O)CSc2nncn3c2cc2occc23)c1	1.2%	.	0.0	20	.	.
COc1cc(C(=O)NCC2CCCO2)ccc1OCc1ccc(Cl)cc1 (stereo not given)	-0.7%	9.4	2.5	-23	0	-1
COc1ccc(S(=O)(=O)N2C3CCC2CC(NC(=O)NC2CCCCC2)C3)cc1 (stereo not given)	.	1.1	0.6	1	8	9
CCCN=Cc1ccc(O)cc1	0.4%	0.3	-0.5	9	0	2
O=C(NCc1ccc2c(c1)OCO2)c1ccc2c(=O)n(C3CCCC3)c(=O)[nH]c2c1	-5.8%	-2.1	2.9	-2	-24	0
N#Cc1ccccc1S(=O)(=O)N1CCN(C(=O)c2cn(-c3ccccc3)nc2-c2cccnc2)CC1	0.0%	3.3	3.0	3	0	-1
CC1CCN(Cc2c(C(=O)N/N=C/c3ccc(C(C)C)cc3)nnn2-c2nonc2N)CC1	3.4%	-5.3	1.4	16	7	-3
COc1ccccc1CNc1nc(-c2ccco2)nn1S(=O)(=O)c1ccc(C)cc1	1.4%	.	1.5	2	.	.
Cc1ccc(S(=O)(=O)Nc2ccccc2F)cc1C(=O)N1CCCC1	-0.8%	5.1	2.3	4	6	10
CC1CCN(CCCOc2ccc(Cl)cc2Br)CC1	6.1%	-5.3	-0.6	1	-7	-5
COc1cc(O)c(C(CCN2CCOCC2)c2cc(OC)c(OC)c(OC)c2)c(OC)c1 (stereo not given)	-0.8%	1.7	-0.1&-0.4	10&3	-16	-9
COc1cccc(CC(=O)NNC(=O)CN(C)S(=O)(=O)c2ccc(C)cc2)c1	1.8%	-1.9	0.8	29	-8	6
COc1ccc(-c2c3c(=O)n(C)c(=O)n(C)c3cn2C2CCCCC2)cc1	.	1.4	1.9	29	-1	-18
COc1ccc2[nH]c(=O)c(CN(Cc3nnnn3Cc3ccco3)C3CCCCC3)cc2c1	0.9%	-0.3	1.3	-11	-5	6
Cc1nn(Cc2c(F)c(F)c(F)c(F)c2F)c(C)c1NC(=O)c1nn(C)cc1Br	0.8%	6.4	-0.2	0	5	-8
Cc1cccc(CNC(=O)c2ccc3nc(Cc4ccccc4)oc3c2)c1	4.4%	.	2.4	-16	.	.
CC1CC(C)CN(CC(=O)c2cccs2)C1 (stereo not given)	-1.7%	-7.7	-0.6	12	3	-14
O=C(Cn1nc(-c2ccc(Cl)cc2)ccc1=O)NCC1COCCO1 (stereo not given)	-1.5%	-1.6	-0.1	0	1	-6
CCN(CC)c1ccc(NC(=O)c2sc3ccccc3c2Cl)cc1	4.7%	.	0.6	36	.	.
Cc1ccc(C(=O)CSc2ncc3c(n2)-c2ccccc2N(Cc2ccc(Cl)cc2)S3(=O)=O)cc1	-0.5%	.	1.2	17	.	.
Nn1c(Cc2cccc3ccccc23)nnc1SCCOc1ccc(Br)cc1	9.8%	-7.0	0.4	11	-16	-7

A draw from above in order of SMILES length, low to high.
Molecule	PINK1 expr mod	D2 agonist	TRPML1 ag	TRPML1 blocker	CtBP-E1A blk	Six1-Eya2 inh
CCN(CC)c1ccc(NC(=O)c2sc3ccccc3c2Cl)cc1	4.7%	.	0.6	36	.	.
Cc1ccc(S(=O)(=O)Nc2ccccc2F)cc1C(=O)N1CCCC1	-0.8%	5.1	2.3	4	6	10
COc1cccc(CC(=O)NNC(=O)CN(C)S(=O)(=O)c2ccc(C)cc2)c1	1.8%	-1.9	0.8	29	-8	6
